Arbovirus anti = blocks arbovirus infection. arbovirus infection cell-based antiviral screen. inhibition, % at 10 µM. 0.37% of 200,000 active. AID 1251;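 active means inhibition from about 30%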;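 further: bluetongue infection of BSR cells; cell survival read as ATP light after 72 h; 0% = infected wells without compound and 100% = uninfected wells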
Mtb bLac sens = beta-lactam sensitization of Mtb H37Rv. inhibition, % at 25 µM. 0.27% of 330,000 active. M. tuberculosis H37Rv growth with meropenem, percent inhibition; hits of this screen are not shown here. AID 434955;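 active means about 74% or more and at least 40 points above the plate without the antibiotic, then above 30% in a dose series; inconclusive means first-round hits that could not be retested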;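 further: growth measured after seven days incubation then overnight dye step; 0% = bacteria only wells and 100% = bacteria with antibiotic; twin plates without the antibiotic show which effects depend on it; some results filed as inactive read as strong as hits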
RecA splice inh = Mtb RecA intein splicing inhibition; 0.75% of 290,000 active; P9WHJ3; cell-free RecA intein splicing, fluorescence; AID 2221; inhibition, %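 (about 9 µM by stock and volumes)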; in the data active means inhibition above about 30%; inconclusive means no clear call, values can overlap the other calls;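 further: 0% = vehicle wells and 100% = reference inhibitor control wells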
Target sequence (P9WHJ3 whole entry, looked up, canonical isoform): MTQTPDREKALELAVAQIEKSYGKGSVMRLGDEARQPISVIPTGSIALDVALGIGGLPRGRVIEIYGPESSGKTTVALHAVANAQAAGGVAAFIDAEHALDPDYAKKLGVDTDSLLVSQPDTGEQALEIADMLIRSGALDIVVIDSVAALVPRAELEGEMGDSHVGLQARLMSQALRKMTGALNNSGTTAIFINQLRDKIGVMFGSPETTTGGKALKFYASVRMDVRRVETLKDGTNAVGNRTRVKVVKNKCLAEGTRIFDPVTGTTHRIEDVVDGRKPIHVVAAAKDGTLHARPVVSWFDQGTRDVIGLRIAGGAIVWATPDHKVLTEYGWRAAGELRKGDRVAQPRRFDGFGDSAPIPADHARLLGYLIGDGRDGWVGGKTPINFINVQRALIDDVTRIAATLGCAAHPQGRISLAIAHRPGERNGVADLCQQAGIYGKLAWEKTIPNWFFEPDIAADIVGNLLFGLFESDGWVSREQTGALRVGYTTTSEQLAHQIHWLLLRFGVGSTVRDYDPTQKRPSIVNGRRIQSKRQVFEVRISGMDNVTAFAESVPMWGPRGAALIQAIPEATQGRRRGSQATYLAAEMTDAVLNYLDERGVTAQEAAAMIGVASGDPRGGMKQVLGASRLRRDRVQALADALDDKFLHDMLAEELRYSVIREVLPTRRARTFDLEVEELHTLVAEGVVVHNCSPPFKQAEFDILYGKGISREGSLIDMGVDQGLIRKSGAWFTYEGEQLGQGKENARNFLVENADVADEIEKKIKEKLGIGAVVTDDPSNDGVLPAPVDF
Mtb H37Rv = M. tuberculosis H37Rv growth inhibitors, H37Rv strain (AID 1626). M. tuberculosis H37Rv growth inhibition; higher % means a stronger effect. one-dose inhibition, % at 10 µM; IC50 in µM for titrated hits. 0.95% of 220,000 active;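 active means confirmed in a dose series; inconclusive means inhibition above 80% but not taken into the dose series; inactive means below 80% or under 30% at every dose of the series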;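 further: bacteria incubated seven days before Alamar blue readout; 0% = bacteria only wells and 100% = bacteria with antibiotic wells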
YopH inh = YopH (Yersinia) phosphatase inhibition. AID 898. inhibition, %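 (about 10 µM by stock and volumes)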. 0.16% of 140,000 active. fluorescence Ex485/Em525;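 active means inhibition of 50% or more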;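 further: controls were vehicle for no effect and minimum signal wells for full effect; inactives centre near -20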
Arbovirus anti repeat = further read-out of Arbovirus anti, marked with its call; inhibition, %; measured here: 10K subset replicate screen; many hits read low in the repeat;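 first of two repeat runs on a subset; 0% = infected and 100% = uninfected wells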
An asterisk follows results filed as active; ? = inconclusive; nt = no result given; & = joins results of further samples. Some of the compounds tested, so the mix of outcomes need not match the whole.

SMILES	Arbovirus anti	Mtb bLac sens	RecA splice inh	Mtb H37Rv	YopH inh	others
C=C1C(=O)O[C@H]2[C@H]1[C@@H](O)CC(=C)[C@@H]1CC(=O)[C@@H](C)[C@H]21	nt	1	-1.2	nt	nt
O=C(Nc1cccs1)Nc1ccc(F)cc1F	7	-2	-0.2	2%	-29
CCn1nnnc1SCC(=O)Nc1nc2ccc(OC)cc2s1	-10	15	-0.6	2%	-16
O=S(=O)(c1ccc(F)cc1)N1CCc2ccccc2C1	nt	0	-1.4	nt	nt
O=C(COC(=O)c1ncc(Cl)c(Cl)c1Cl)NCc1cccs1	nt	3	-2.5	nt	nt
O=C(/C=C/c1ccc(N2CCOCC2)cc1)c1ccccc1	3	58	-0.1	9%	nt
NS(=O)(=O)c1ccc(NC(=O)c2ccc(CNS(=O)(=O)c3cc(C(F)(F)F)ccc3Cl)cc2)cc1	3	-5	-0.1	9%	nt
Cc1ccc(-n2c(=O)cc(N3CCC(C)CC3)[nH]c2=O)cc1	1	-2	7.8	-4%	-20
O=C(Nc1cccc(F)c1)N1CCCC(CNS(=O)(=O)Cc2ccccc2)C1 (stereo unspecified)	1	-1	-1.3	0%	nt
CCOc1ccc(NC(=O)/C=C/c2ccccc2)c([N+](=O)[O-])c1	1	-5	1.0	7%	-28
CC(=O)c1cccc(NC(=O)/C(=C/c2ccco2)NC(=O)c2ccco2)c1	nt	0	0.7	nt	nt
CCOC(=O)CSc1nc(C)c2ccc(C)cc2n1	-3	49	1.6	2%	-4

In the list so far, four have fluorine.
SMILES	Arbovirus anti	Mtb bLac sens	RecA splice inh	Mtb H37Rv	YopH inh	others
O=C(Nc1cccs1)Nc1ccc(F)cc1F	7	-2	-0.2	2%	-29
O=S(=O)(c1ccc(F)cc1)N1CCc2ccccc2C1	nt	0	-1.4	nt	nt
NS(=O)(=O)c1ccc(NC(=O)c2ccc(CNS(=O)(=O)c3cc(C(F)(F)F)ccc3Cl)cc2)cc1	3	-5	-0.1	9%	nt
O=C(Nc1cccc(F)c1)N1CCCC(CNS(=O)(=O)Cc2ccccc2)C1 (stereo unspecified)	1	-1	-1.3	0%	nt

(continued)
SMILES	Arbovirus anti	Mtb bLac sens	RecA splice inh	Mtb H37Rv	YopH inh	others
COc1ccc(NC(=O)Nc2ccc(Br)cn2)cc1OC	3	15	2.9	-9%	-15
COc1ccc(C2C(C(=O)c3ccc(C)o3)=C(O)C(=O)N2Cc2ccco2)cc1OC (stereo unspecified)	nt	-2	2.4	nt	nt
CCn1cc(C(=O)N[C@H](C(=O)NCCO)C(C)C)c(=O)c2cc3c(cc21)OCO3	nt	-1	-1.4	nt	nt
c1ccc(Oc2nc3ccccc3n3cccc23)cc1	5	45	14	6%	-1
CCN(CC)S(=O)(=O)c1cccc(-c2nn(-c3ccccc3)cc2/C=C(\C#N)C(=O)NCc2ccco2)c1	-17	3	3.9	-7%	-26
CC(C(=O)Nc1ccccc1-c1ccccc1)N1CCN(Cc2ccccc2)CC1 (stereo unspecified)	22	10	-1.4	17%	nt
COc1ccccc1NC(=O)C1CCN(C(=O)NCc2ccccc2)CC1	nt	6	0.8	nt	nt
Cc1ccc(NC2=C(Cl)C(=O)OC2OC(C)C)cc1 (stereo unspecified)	-5	3	-0.3	-6%	nt
COC(=O)[C@H](Cc1ccccc1)NC(=O)N1CCN(c2ccc(F)cc2)CC1	nt	15	0.6	-5%	nt
CC1CN(C(=O)CSc2nnc(-c3ccccc3)o2)CC(C)O1 (stereo unspecified)	nt	3	-1.3	nt	nt
CCOC(=O)NC(NS(=O)(=O)c1ccccc1)(C(=O)OCC)C(F)(F)F (stereo unspecified)	14	-3	2.3	8%	-24
O=C(NC1CCCCCC1)C1c2ccccc2C(=O)N1Cc1cccs1 (stereo unspecified)	-7	1	0.1	-9%	-21
O=[N+]([O-])c1ccc(-c2nc(C(Cl)Cl)c3ccccc3n2)cc1	nt	97	nt	<0.2µM*	nt
Cc1nn(CCS(=O)(=O)c2ccc(Cl)cc2)c(C)c1Br	nt	-3	-1.2	5%	nt
CC[N+]1(CC)CC2=Cc3ccccc3CC2C1 (stereo unspecified)	4	-4	0.6	-5%	nt
CC(C)(C)CC(=O)Nc1nn[nH]n1	9	4	0.1	0%	-9
COC(CNC(=O)c1ccc2c3c(onc13)-c1ccccc1C2=O)OC	nt	3	53*	-2%	nt
COc1cc(/C=N/NC(=O)c2cccc([N+](=O)[O-])c2)ccc1OCc1ccc(C)cc1	-15	-11	0.3	-7%	-2
COc1ccccc1C(=O)NC(=O)OCCn1c(C)cnc1[N+](=O)[O-]	-2	1	-2.9	-2%	nt
O=C(OCc1nnc(-c2ccccc2)o1)c1cccc(S(=O)(=O)N2CCOCC2)c1	nt	-2	-1.4	nt	nt
OCC1(CC2CCCCO2)CCN(Cc2nc3ccccc3[nH]2)CC1 (stereo unspecified)	-5	2	2.5	-2%	nt
COc1cccc(CN2CC(C(=O)N(C)CCc3ccccc3)CCC2=O)c1 (stereo unspecified)	nt	7	1.6	nt	nt
O=S(=O)(CC(O)CS(=O)(=O)c1ccc(Cl)cc1)c1ccccc1 (stereo unspecified)	nt	-7	-1.1	-1%	nt
Cc1c(Cl)cccc1NC(=O)c1nc(C)n(-c2cc(OC(C)C)c(Cl)cc2Cl)n1	-16	12	7.6	3%	12
CCN(CC)CCNC(=O)c1sc2ncn(CC(=O)Nc3ccc(C)c(Cl)c3)c(=O)c2c1C	-30	-3	-0.6	-3%	nt
CCOc1ccc2nc(N3C(=O)CNC3=S)sc2c1	nt	80	-2.6	?	nt
COc1cc2[nH]c(C(=O)NCC3CCCO3)cc2c(OC)c1OC (stereo unspecified)	nt	2	-3.7	nt	nt
CN(C)CCNc1ncnc2c1sc1nc(-c3ccccc3)c3c(c12)CCCC3	nt	100	3.1	50%	nt
Cc1cccc(N(CC(=O)NCCSc2nc3ccccc3s2)S(=O)(=O)c2ccccc2)c1	-6	1	6.8	2%	-18
CC(=O)c1cccc(NC(=O)COC(=O)c2ccccn2)c1	nt	2	2.0	nt	nt
COc1ccc(Cn2c(=O)n(Cc3ccco3)c(=N)c3c4c(sc32)COC(C)(C)C4)cc1	9	31	nt	10%	-45	Arbovirus anti repeat=-1
COc1ccc(OC)c(C(=O)/C=C/c2ccccc2C(F)(F)F)c1	-32	14	4.8	nt	-30
O=C(CCCN1C(=O)/C(=C/c2ccccc2)SC1=S)Nc1ccc(C(=O)O)c(O)c1	nt	9	38*	nt	nt
COc1ccc(Nc2nnc(SCC3CCCO3)s2)cc1 (stereo unspecified)	-2	3	-1.2	-4%	nt
COc1ccc(C2=NN(C(=O)CSc3nnc(-c4ccccc4F)o3)C(c3ccco3)C2)cc1 (stereo unspecified)	-1	2	3.5	7%	7
O=S(=O)(c1ccc(Cl)cc1)N1CCCC1c1nc(-c2cccc(Cl)c2)no1 (stereo unspecified)	5	2	0.0	-7%	-25
CCCN(CCC)C(=O)CCSCCC(=O)N(CCC)CCC	-5	1	3.9	-2%	-27
Oc1ccc[n+](/C=C\c2ccccc2)c1	nt	-3	-3.6	nt	nt
O=C1CNC(=S)N1CCc1ccc(Cl)cc1	nt	-6	-2.7	-6%	nt
COC(=O)c1cc(C(=O)OCC(=O)NNC(=O)c2cccs2)cc([N+](=O)[O-])c1	nt	5	-3.8	nt	nt
O=C(NC1CCCCC1)c1ccc(OC2CCN(Cc3ccccn3)CC2)cc1	nt	4	0.1	nt	nt
O=c1[nH]c2ccccc2nc1C(Nc1ccccc1)c1ccccc1 (stereo unspecified)	nt	-3	-0.2	-5%	nt
CCCc1ccc(OCCNC(=O)CC)cc1	-1	8	1.1	11%	-24
CCCCC(=O)OCc1cn(-c2ccc(Cl)cc2)nn1	1	-2	0.9	1%	-51
COc1ccc(C(=O)Nc2ccc(S(=O)(=O)Nc3nccc(C)n3)cc2)cc1[N+](=O)[O-]	nt	5	-1.1	nt	nt
O=C(Nc1ccccc1Cl)C1CCCN(S(=O)(=O)c2cccc3cccnc23)C1 (stereo unspecified)	nt	-7	1.2	nt	nt
O=C(O)c1cccc(CSc2ncccn2)c1	-5	5	1.0	-2%	-37
Cc1cc(C)cc(NC(=O)N2CCCC2C(=O)Nc2ccc(-n3cnnn3)c(C)c2)c1 (stereo unspecified)	10	22	-3.3	12%	-9
COc1cc2c(cc1OC)C(COc1ccc(F)cc1)NCC2 (stereo unspecified)	nt	2	-2.4	nt	nt
CC(=O)c1c(OC(=O)c2ccccc2)c2ccccc2n1C	0	97	0.6	2%	-31
COc1ccc(N2CCN(CC(=O)Nc3c(C)cc(C)cc3C)CC2)cc1	9	-13	-1.1	-3%	-36
Cc1ccc(CNC(=O)C(=O)NCC2OCCN2S(=O)(=O)c2ccc3c(c2)OCCO3)cc1 (stereo unspecified)	1	1	0.1	6%	-35
COC(=O)CCCC(=O)N1CCC(CCC(=O)NC2CC2)CC1	nt	8	2.2	nt	nt
CCOC(=O)N1CCN(C(=O)C2CCN(Cc3cccc(OCc4ccccc4)c3)CC2)CC1	-3	-4	0.1	-5%	-28
Cc1ccccc1NS(=O)(=O)c1cc2c(cc1C)N(C)CCO2	nt	5	0.2	nt	nt
Cc1ccc(-c2nc3ccccc3c(=O)n2O)cc1	nt	84	-3.0	nt	nt
O=C(/C=C/c1ncc(C(F)(F)F)cc1Cl)OCc1ccccc1	7	99	1.0	20%	-18
O=C1COc2cccnc2N1	3	1	-5.7	-8%&-4%	-30
CCC(C)(C)C1CCc2[nH]nc(C(=O)N/N=C(\C)c3ccco3)c2C1 (stereo unspecified)	nt	1	4.0	-4%	nt
CC(=O)NCCC(=O)Nc1ccc(C)c(F)c1	1	-9	1.0	-8%	-35

Reprinted at random: 4 compounds from above, in no set order.
SMILES	Arbovirus anti	Mtb bLac sens	RecA splice inh	Mtb H37Rv	YopH inh	others
COc1ccc(OC)c(C(=O)/C=C/c2ccccc2C(F)(F)F)c1	-32	14	4.8	nt	-30
CCOc1ccc(NC(=O)/C=C/c2ccccc2)c([N+](=O)[O-])c1	1	-5	1.0	7%	-28
Oc1ccc[n+](/C=C\c2ccccc2)c1	nt	-3	-3.6	nt	nt
COc1ccccc1NC(=O)C1CCN(C(=O)NCc2ccccc2)CC1	nt	6	0.8	nt	nt

(next part)
SMILES	Arbovirus anti	Mtb bLac sens	RecA splice inh	Mtb H37Rv	YopH inh	others
COc1ccc(C2(CNC(=O)c3ccccc3)CCOCC2)cc1	nt	-1	-1.2	5%	nt
Cc1nnc(SCc2cnc(-c3ccc(C(C)C)cc3)s2)n1C	10	?	nt	1%	-47
Cc1c(C)n(C)c2ccc(C(=O)NCCCN3CCCCC3C)cc12 (stereo unspecified)	nt	-1	0.2	nt	nt
CCOc1cc(NC(=O)c2ccccc2OC)c(OCC)cc1NC(=O)c1ccccc1	nt	-7	-1.4	nt	nt
Cc1nn(C)c(C(=O)NC(=S)Nc2ccccc2O)c1Cl	nt	97	1.1	nt	nt
CN1c2ccccc2C(C)(C)C12CC(c1ccc(Cl)c(S(=O)(=O)N3CCCC3)c1)=NO2 (stereo unspecified)	-2	-11	3.0	-5%	-38
COc1ccc(S(=O)(=O)Nc2cc(C(=O)NCCC(C)C)ccc2N2CCOCC2)cc1	-17	-7	2.5	-2%	-42
COC(=O)c1cc(S(=O)(=O)NCc2ccc(S(N)(=O)=O)cc2)oc1C	nt	-6	-8.0	-4%	nt
CCOC(=O)CCC(=O)N(CCN(C(=O)CCC(=O)OCC)c1ccccc1)c1ccccc1	10	-3	0.9	7%	-16
CC1CCN(S(=O)(=O)c2cn(CC(=O)N3CC(C)CC(C)C3)c(=O)c3ccccc23)CC1 (stereo unspecified)	0	-2	0.1	-10%	8
CC(C)Nc1ncnc2ccc(Br)cc12	3	2	0.3	6%	16
NS(=O)(=O)c1ccc(NC(=O)/C=C/c2ccccc2Cl)cc1	2	-3	-1.9	-1%	nt
CN1CCC(=NNC(=O)C(=O)Nc2ccccc2)CC1	10	-10	0.3	?	-31
CNC(=O)c1ccsc1NC(=O)c1ccc(S(=O)(=O)N2CCOCC2)cc1	-2	0	-0.9	-2%	-16
O=C(O)c1cccc(NS(=O)(=O)c2ccc(Cl)c(C(=O)O)c2)c1	13	-12	-0.6	-3%	-62
CCc1nnc(NC(=O)CSc2nnc3ncccn23)s1	11	-11	-0.6	-3%	-33
CCCCNC(=O)N(O)C1N(/N=C/c2ccccc2OC)C(=S)SC1(C)C (stereo unspecified)	nt	3	-6.6	nt	nt
COc1ccccc1OCCNC(=O)C1CCCCC1	3	2	-1.6	-2%	nt
Cc1cc[n+](CC(=O)c2ccc3c(c2)OCCO3)cc1	-5	2	0.0	7%	-27
CC1CC(C)CN(C(=O)C2CCCN(S(=O)(=O)c3cnc[nH]3)C2)C1 (stereo unspecified)	nt	-14	-3.0	1%	nt
Cc1cccc(C(=O)N2CCC(=O)N(C(COCc3cccc(C(F)(F)F)c3)Cc3ccccc3)CC2)c1 (stereo unspecified)	-34	-5	13	-1%	-2
